Assay outcomes deposited in PubChem BioAssay by National Center for Advancing Translational Sciences (NCATS).
VDR inh: inhibitors of human vitamin D receptor; P11473; VDR-SRC2-3 peptide fluorescence polarization, 2 h; Potency, µM, without a hit: max response, negative = inhibition, actives largely listed as inhibitors; hit rate 0.93% among 400,000; AID 504847; active = well fitted inhibition curve with a large enough effect; inconclusive = small, poorly fitted or top-dose-only effect, or another doubt; inactive = no such curve, though single readings can be large or run the other way; note: series mostly up to about 120 µM
Target sequence (P11473 whole entry, looked up): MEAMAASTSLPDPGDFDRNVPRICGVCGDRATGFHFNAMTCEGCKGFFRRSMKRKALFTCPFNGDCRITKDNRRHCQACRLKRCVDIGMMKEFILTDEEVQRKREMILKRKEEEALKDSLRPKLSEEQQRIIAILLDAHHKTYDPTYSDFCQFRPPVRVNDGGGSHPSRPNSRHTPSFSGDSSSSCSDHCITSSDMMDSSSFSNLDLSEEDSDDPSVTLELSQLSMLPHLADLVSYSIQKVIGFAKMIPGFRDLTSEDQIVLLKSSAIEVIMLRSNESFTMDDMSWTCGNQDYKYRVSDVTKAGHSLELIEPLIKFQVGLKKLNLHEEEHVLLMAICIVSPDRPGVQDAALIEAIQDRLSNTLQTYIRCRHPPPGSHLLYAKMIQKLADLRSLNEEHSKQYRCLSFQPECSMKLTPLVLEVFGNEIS
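After 23 nl compound addition and a short centrifugation, plates sat for 2 hours at ambient temperature; polarization of fluorescence then indicated loss of VDR binding to peptide SRC2-3.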
Active calls of the source: *; ? = inconclusive; [ ] = dose if it differs, or a comment. % is set by controls: 0 for no effect and ±100 for the full control effect; potency is the fitted concentration of half-maximal effect.

SMILES	VDR inh
O=C(CC1SC(=O)N(c2ccccc2)C1=O)Nc1ccc(Cl)cc1 (stereo unspecified)	40µM*
Cc1nn(-c2nc(-c3ccccc3)cc(C(F)(F)F)n2)c(C)c1Cl	-3%
CCOc1cc(C(=O)OCC(=O)Nc2c(C)cccc2C)ccc1OCC(=O)N1CCOCC1	-2%
COC(=O)[C@]1(C)N[C@H](CN(C)C(=O)Nc2ccc(OC)cc2)[C@@H]2C(=O)N(C)C(=O)[C@@H]21	4%
CN1CCN(CCC(=O)Nc2ccc(Cl)cc2)CC1	6%
Cc1c(C(=O)OC(C)C(C)C[N+](C)(C)C)oc2ccccc12 (stereo unspecified)	-3%
O=C(O)CSc1nc2ccccc2c(=O)[nH]1	20%
Cc1ccccc1Cn1cc(NC(=O)c2cc3nc(-c4ccco4)cc(C(F)(F)F)n3n2)cn1	-8%
CCCc1cc(-c2nc(N)ncc2-c2ccc3c(c2)OCCCO3)c(O)cc1OC	13%
Clc1cccc(CSc2ccc(-c3ccco3)nn2)c1	?
N#Cc1ccc(C(=O)Nc2nnc(-c3ccccn3)o2)cc1	-26%
Cc1ccccc1C(=O)Nc1nnc(-c2ccco2)o1	0%
O=C(OCc1ccccc1)c1cccnc1	-4%
CCOc1ccc(NC(=O)CN(C)C(=O)c2cc([N+](=O)[O-])ccc2N2CCCCC2)cc1OCC	-1%
COC(=O)COc1nc(C)c2c(c1C#N)CC(C)(C)OC2	-5%
COc1ccc(C2=NN(C(=O)CSc3nccn3C)C(c3ccco3)C2)cc1 (stereo unspecified)	0%
COC1CCN(Cc2c(C(=O)N3C[C@@H](C)O[C@@H](C)C3)nc3ccc(Cl)cn23)CC1	-2%
CCCCCSc1nc2c(c(=O)[nH]c(=O)n2C)n1CCc1ccccc1	-3%
COc1ccc(C(=O)NC(C)c2cnn(-c3ccccn3)c2C)o1 (stereo unspecified)	-11%
COc1ccc(S(=O)(=O)Oc2ccc3ccccc3c2)cc1	-5%
CCN(Cc1ccccc1)C(=O)c1ccc(N(C)S(=O)(=O)c2ccc(C)cc2)cc1	-11%
CC(C)NC(=O)CCCn1cc([N+](=O)[O-])cn1	-8%
COc1ccc(S(=O)(=O)N2CCN(Cc3cccc(F)c3)CC2)cc1	16%
Cc1occc1-c1nnc(SCC(=O)NC2(C#N)CCCC2)n1C	4%
CC(=O)Nc1cc(-c2ccccc2)nn1Cc1cccc(Cl)c1	-7%

Some of the entries above, reformatted.
SMILES,VDR inh
O=C(CC1SC(=O)N(c2ccccc2)C1=O)Nc1ccc(Cl)cc1 (stereo unspecified),40µM*
Cc1nn(-c2nc(-c3ccccc3)cc(C(F)(F)F)n2)c(C)c1Cl,-3%
CCOc1cc(C(=O)OCC(=O)Nc2c(C)cccc2C)ccc1OCC(=O)N1CCOCC1,-2%
COC(=O)[C@]1(C)N[C@H](CN(C)C(=O)Nc2ccc(OC)cc2)[C@@H]2C(=O)N(C)C(=O)[C@@H]21,4%
CN1CCN(CCC(=O)Nc2ccc(Cl)cc2)CC1,6%
Cc1c(C(=O)OC(C)C(C)C[N+](C)(C)C)oc2ccccc12 (stereo unspecified),-3%

The list goes on.
SMILES	VDR inh
CN(CC(=O)Nc1ccccc1Br)C(=O)c1ccccc1Sc1ccccc1C#N	7%
O=C(NC(=S)Nc1cccc(O)c1)c1ccco1	-24%
CC(=O)N1CCN(CC(=O)Nc2cccc(S(=O)(=O)N3CCCCC3)c2)CC1	15%
CC(OC(=O)c1ccc(Cl)nc1)C(=O)N1CCc2ccccc21 (stereo unspecified)	10%
C=COc1ccc(N2C(=O)c3ccccc3OC2C)cc1 (stereo unspecified)	-19%
CCN(CC)C(=O)CSc1nc(OC)cc(=O)[nH]1	-23%
Cc1cc(C(F)F)n2nc(C(=O)Nc3ccc(S(=O)(=O)NC45CC6CC(CC(C6)C4)C5)cc3)nc2n1	-7%
CCC(C)(C)n1nnnc1C(c1cc2cccc(C)c2[nH]c1=O)N1CCCC1 (stereo unspecified)	22%
CCOc1ccccc1NC(=O)C(c1ccccc1)N1CCN(CC(=O)N2CCCC2)CC1 (stereo unspecified)	-14%
O=C(CCCOc1ccc(Cl)cc1Cl)NCc1ccccn1	9%
O=C(Cn1c(O)c(/C=C2\C=Nc3ccc(Br)cc32)sc1=O)N1CCCC1	-5%
COc1ccccc1CCNC(=O)C(=O)Nc1cc2c3c(c1)C(C)C(=O)N3CCC2 (stereo unspecified)	-4%
Nc1cc(C(=O)OCC(=O)N2CCCC2)ccc1Cl	-5%
Nn1c(SCC(=O)Nc2nccs2)nnc1-c1cccnc1	38%[activator]
O=c1cc(CSc2nc3ccccc3[nH]2)c2ccccc2[nH]1	11%
CCCCn1c(NC(=O)CC)c(C#N)c2nc3ccccc3nc21	-5%
CC1CCN(C(=O)CN2CCSc3ccccc32)CC1	18%
CCCCC(=NCCc1c(C)[nH]c2ccccc12)C1=C(O)CC(c2ccccc2)CC1=O (stereo unspecified)	-17%
Cc1cccc(NC(=S)NNC(=O)COc2ccc(Cl)cc2Cl)c1	-21%
O=C(O)c1ccccc1NC(=O)C1CCN(S(=O)(=O)c2cccc3nsnc23)CC1	2%
COc1ccc(NC(=O)C2=C(C)Nc3nc(CCCO)nn3C2c2ccc(OC)c(OC)c2)cc1 (stereo unspecified)	11%
CCCCOC(=O)c1ccc(Nc2nc3ccc(C)cc3n3cnnc23)cc1	-9%
COC(=O)[C@H]1C[C@@H]1[C@H](NC(=O)[C@H]1C[C@@H]1[C@H](NC(=O)OCc1ccccc1)c1ccccc1)c1ccccc1	-1%
CCCOc1cccc(C2C(C(=O)c3ccc(C)o3)=C(O)C(=O)N2c2nc(C)c(C(C)=O)s2)c1 (stereo unspecified)	?
CCCC(CCC(=O)Nc1ccc(C(=O)OCC)cc1)C(=O)O (stereo unspecified)	13%
Remaining list, next part:
SMILES	VDR inh
Nc1cccc2c(=O)[nH]ccc12	-29%
O=C(COC(=O)c1ccccc1)c1ccc(Br)cc1	-6%
CC(C)[C@@H](CC(=O)N[C@@H]1CCNC[C@H]1C(=O)N[C@H](CC(=O)N[C@@H](CCC(=O)O)CC(=O)O)Cc1c[nH]c2ccccc12)NC(=O)C[C@H](Cc1ccccc1)NC(=O)[C@@H]1CNCC[C@H]1N	-1%
CCn1c(CNC(=O)c2cccnc2)cc2ccccc21	-15%
CC(=O)c1ccc(S(=O)(=O)Nc2cccc(-c3ccc(N4CCCCCC4)nn3)c2)cc1	21%
Cc1ccc2oc(=O)c3cnn(CC(=O)Nc4ccc(Br)cc4C)c3c2c1	-3%
COc1ccc(C(=O)C2CCCN(C(=O)/C=C/c3cnc[nH]3)C2)c(C)c1 (stereo unspecified)	-1%
COc1ccccc1C(=O)Nc1ccc(S(=O)(=O)Nc2cc(C)on2)cc1	1%
COc1ccc(NC(=O)c2sc(NC(=O)COc3ccccc3)nc2C)cc1	-4%
COc1ccc2cc(C=O)n(C)c2c1	-3%
Cc1ccc(-n2nc3c(c2NC(=O)/C=C\c2ccc4c(c2)OCO4)CSC3)cc1	2%
COc1cc(-c2nc(-c3ccccn3)no2)cc(OC)c1OC	4%
CCn1ncc(C2=NOC(C(=O)Nc3cc(OC)c(Cl)cc3OC)C2)c1C (stereo unspecified)	2%
O=C(Nc1ncccn1)c1ccc([N+](=O)[O-])o1	-6%
CCOC(=O)C1CCCN(C2CC(=O)N(c3ccc(C)cc3)C2=O)C1 (stereo unspecified)	2%
COc1cc(NC(=O)c2cccs2)c(OC)cc1NC(=O)CCn1nnc2ccccc21	15%
CCS(=O)(=O)Nc1cc2c3c(c1)CCC(=O)N3CCC2	-3%
CCn1cc(/C=C(\NC(=O)c2ccc(OC)c(OC)c2)C(=O)NCCCO)c2ccccc21	-16%
COc1ccccc1N(Cc1ccccc1)S(=O)(=O)c1cccc(C(=O)Nc2ccccn2)c1	4%
COc1cc(C(=O)NCc2ccncc2)cc(OC)c1OC	7%
O=C(OCc1cnc(Cl)s1)c1ccccc1Cl	3%
Cc1ccc(NC(=O)CN2CCOCC2)cc1Cl	8%
CC1CCN(C(=O)c2cccc(S(=O)(=O)N3CCN(c4ccccc4)CC3)c2)CC1	18%
COC(=O)c1ccccc1NC(=O)c1ccc2nc(CCc3ccccc3)oc2c1	8%
CCc1ccc(NC(=O)COC(=O)c2cccs2)cc1	7%

Three entries from above, arranged by count of non-hydrogen atoms, ascending:
SMILES	VDR inh
Nc1cccc2c(=O)[nH]ccc12	-29%
CC1CCN(C(=O)c2cccc(S(=O)(=O)N3CCN(c4ccccc4)CC3)c2)CC1	18%
COc1ccccc1N(Cc1ccccc1)S(=O)(=O)c1cccc(C(=O)Nc2ccccn2)c1	4%

Next records:
SMILES	VDR inh
CC(C)Sc1nc2c([nH]c3ccccc32)c(=O)n1C	-12%
CC(C)(CC(=O)O)CC(=O)Nc1ccc(Cl)c(Cl)c1	-3%
O=C(COC(=O)/C=C/c1cccc(C(F)(F)F)c1)NCc1ccco1	-11%
CC(=O)c1ccc(NC(=O)CSc2ccc3nnc(CCNS(=O)(=O)c4ccc(C)cc4)n3n2)cc1	8%
COc1ccccc1NC(=O)N1CCCC1C(=O)NCc1ccccc1 (stereo unspecified)	3%
O=C(NCCC1=CCCCC1)C1CCN(C(=O)Nc2ccccc2)CC1	-1%
CCOC(=O)C(=O)Nc1cc(C)on1	2%
COc1cccc(N2CCN(C3CCCC(C)C3)CC2)c1 (stereo unspecified)	-1%
Cc1ccc(CC2CC(=O)N(c3nc(C)cc(C)n3)C2=O)cc1 (stereo unspecified)	-17%
CCCCCCCc1nc2sc3c(c2c(=O)n1N)CC(C)(C)OC3	3%
CSc1cccc(CNC(=O)C2CCC(=O)N(CC3CCCCC3)C2)c1 (stereo unspecified)	-27%
COCC(=O)N(Cc1cc2cc(OC)ccc2[nH]c1=O)c1ccccc1	6%
COc1ccc(CC2(CO)CCN(Cc3cnn(C)c3C)CC2)cc1	0%
Cc1c(C(=O)N2CCC(N3CCSCC3)CC2)oc2c(F)cccc12	10%
O=C(O)Cn1nc(-c2ccccc2)cc1-c1ccccc1	?
Cc1cc(=O)n(CC(=O)NC(C)c2ccccc2)c2c1c(C)nn2-c1cccc(F)c1 (stereo unspecified)	9%
Cc1ccc(Cl)cc1N1CCN(C(=O)c2ccc(CN3CCOCC3)cc2)CC1	-8%
CCOC(=O)N1CCN(Cc2nc3cc(NC(=O)CC(C)C)ccc3n2CC)CC1	-20%
CCCNC(=O)c1ccccc1N1CCN(CCCCN2C(=O)C3CCCCN3C2=O)CC1 (stereo unspecified)	1%
OC[C@H]1O[C@@H](O[C@@H]2[C@@H](CO)O[C@@](O)(CO)[C@H]2O)[C@H](O)[C@@H](O)[C@H]1O	-6%
COc1ccc(S(=O)(=O)NCCCn2ccnc2)cc1Cl	-3%
CC(C)c1ccc(CN(C)CC(O)c2ccccc2)cc1 (stereo unspecified)	-2%
COc1ccc(-n2c(SCC(=O)NCc3ccc(F)cc3)nc3c([nH]c4ccccc43)c2=O)cc1	14%
COc1ccc(C(C)NC(=O)C2CCCO2)cc1OC (stereo unspecified)	-3%
O=C(Nn1c(-c2ccc(F)cc2)nc2ccccc2c1=O)c1cccnc1	1%

Fetched one by one from above, two records:
SMILES	VDR inh
COc1ccc(CC2(CO)CCN(Cc3cnn(C)c3C)CC2)cc1	0%
OC[C@H]1O[C@@H](O[C@@H]2[C@@H](CO)O[C@@](O)(CO)[C@H]2O)[C@H](O)[C@@H](O)[C@H]1O	-6%

Going on with the list.
SMILES	VDR inh
O=C(O)C1CCCN(S(=O)(=O)c2ccc(Br)cc2)C1 (stereo unspecified)	3%
CCc1nnc(NC(=O)c2nn(-c3ccccc3)nc2C)s1	22%
COc1ccc(CC(=O)OCC(=O)N2CCCc3ccccc32)cc1	-9%
O=c1c2oc3ccccc3c2ncn1Cc1cccc(Cl)c1	6%
O=C(CN1C(=O)COc2ccccc21)NCCCN1CCOCC1	1%
CCCCCOC(=O)Cn1c(=O)c2c(nc(N3CCOCC3)n2C)n(C)c1=O	6%
COc1ccc(NC(=O)Cn2c(=O)n(-c3ccccc3)c(=O)c3sccc32)c(OC)c1	0%
CCOC(=O)c1c(C)n(C)c2cc(OCCN(CC)CC)ccc12	-14%
O=C(Cc1ccc(Cl)cc1Cl)Nc1ccncc1	12%
OC(COc1c(Br)cc(Br)cc1Br)CN1CCOCC1 (stereo unspecified)	-4%
COc1cc(OC)c(NS(=O)(=O)c2ccc(Cl)c(C(=O)OC(C)C(=O)N3CCCC3)c2)cc1Cl (stereo unspecified)	-9%
COC(=O)c1ccc(N2CCN(C)CC2)c(NC(=O)c2cc3ccccc3o2)c1	4%
CN(C)c1ccc(C(=O)/C=C/c2ccccc2)cc1	-20%
COc1ccc(Cn2cccc(NC(=O)Nc3cccc(OC)c3)c2=O)cc1	2%
COc1cccc(C2CC(c3cccs3)=NN2S(C)(=O)=O)c1OC (stereo unspecified)	-8%
COC(=O)/C=C/C(=O)Nc1cccnc1	1%
CCC(=O)Nc1ccc(-c2nnc(-c3ccccc3)o2)cc1	10%
O=C(CN(c1ccccc1F)S(=O)(=O)c1ccccc1)Nc1ccccc1C(=O)N1CCOCC1	-6%
COc1ccc(OC)c(CN2CCC(C(=O)N(C)CCc3ccc(OC)c(OC)c3)CC2)c1	10%
Cc1cc(C)c(NC(=O)CSc2nc3ccc(NC(=O)CSc4nnnn4Cc4ccccc4)cc3s2)c(C)c1	21%
N/C(=N\OC(=O)COc1ccc2ccccc2c1)c1cccnc1	-5%
O=C(NCc1ccccc1)C1CCCN(C(=O)Nc2ccccc2)C1 (stereo unspecified)	-2%
COc1ccc(NC(=O)CCNS(=O)(=O)c2ccccc2F)cc1S(=O)(=O)N1CCOCC1	-1%
COc1cccc(C(=O)/C=C/Nc2ccc(S(=O)(=O)Nc3onc(C)c3C)cc2)c1	-13%
O=C(Nc1ccc(Br)cc1)c1ccc2ncsc2c1	-8%
CCOc1ccc(OCC)c(NC(=O)CC2Oc3ccccc3NC2=O)c1 (stereo unspecified)	-13%

A portion of the library. The share of hits here may be higher or lower than overall.
